Ab BasE inh: BasE siderophore enzyme inhibitors, primary screen, biochemical, Acinetobacter baumannii ATCC 17978, fluorescence polarization; purified BasE, fluorescence polarization binding displacement; inhibition, % (test concentration not listed); hit rate 0.1% among 84,000; AID 485350, 2010;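 active means both replicates above 25% with normal brightness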;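 further: 0% = negative plate control signal and 100% = positive plate control signal; stock transfer was 100 nL into about 30 µL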
KSHV LANA nucl: inhibitors of KSHV LANA-nucleosome binding, primary screen, biochemical, fluorescence polarization, FITC-LANA1-23, chicken nucleosomes; FITC-LANA1-23 / chicken nucleosome fluorescence polarization; active compounds read low; z-score (concentration not given with the values); hit rate 0.3% among 51,000;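 active means both repeat wells score below -2 in polarization z-score versus plate sample wells, excluding overly bright wells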;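 further: 100 nL library stock added to about 30 µL; numbers are from one replicate; some results filed as inactive read as strong as hits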
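System – purified chicken nucleosomes with FITC-labelled LANA N-terminal peptide (1-23) · Amount – 240 nM purified chicken nucleosomes (480 nM peptide binding sites), final · Also added – 50 nM FITC-LANA1-23 probe · Medium – TEN-BT buffer, pH 7.5 · Incubation – compound with peptide–nucleosome mix 10–45 min at room temperature · Detection – fluorescence polarization, ex 480 nm, em 535 nm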
Active calls of the source: *; nt = no result given.

SMILES	Ab BasE inh	KSHV LANA nucl
Cc1noc(C)c1CNc1ccccc1	-0.3	nt
CSC(=NC#N)N1CCC(C(=O)c2ccccc2)CC1	0.5	nt
CCC(C)NC(=O)c1ccccc1NC(=O)Nc1ccccc1 (stereo not given)	1.9	-1.03
Cc1cc(C(=O)COn2nnc3ccc(Cl)cc32)c(C)n1Cc1cccs1	0.7	nt
Brc1ccc(-c2ccnc3ncnn23)cc1	nt	-0.417
OCCN(c1ccccc1)c1ncnc2onc(-c3ccc(F)cc3)c12	0.4	nt
CCSc1nnc(COc2ccccc2)n1CC	0.9	1.01
COc1ccc(OCC(O)CNC(=O)Nc2cc(F)ccc2C)cc1 (stereo not given)	10.6	0.473
Cc1csc(CC(N)=S)n1	-0.8	nt
CN1CC(=O)N(CC(=O)c2ccc(Cl)s2)C1=O	-3.8	nt
CCC(=O)N1c2ccccc2N=C(c2ccccc2)CC1c1ccccc1 (stereo not given)	-1.5	nt
Cc1oc2c(c1C(=O)NCCCN1CCOCC1)C(=O)c1ccccc1C2=O	1.1	1.11
Cn1c(=O)c2cc(C(=O)NC3CC3)sc2c2ccccc21	-0.8	-0.695
Cn1ccsc1=NC(=O)Cn1cnc2ccccc2c1=O	-0.7	nt
O=C(Nc1cccn2ncnc12)c1cccc(C(F)(F)F)c1	nt	-0.284
O/N=C/c1cccc(Oc2ccccc2)c1	-7.4	nt
O=C(OCN1C(=O)c2ccccc2C1=O)c1cc[n+]([O-])cc1	0.4	nt
CC1CCCCC1NC(=O)CSC1=Nc2ccccc2C2CC=NN12 (stereo not given)	1.2	nt
N#CCC(=O)c1ccco1	-3.0	nt
FC(F)(F)c1cccc(Cc2c[nH]c(=S)s2)c1	2.8	nt
CCOC(=O)CC1(O)CSc2nc3sc4c(c3c(=O)n21)CCCC4 (stereo not given)	0.8	-0.064
Cc1ccc(N(C(=O)c2ccc(Br)o2)C(=O)N2CCCCC2)cc1	-2.4	-0.06
CCn1c(=O)cc(SCC(=O)NCCCN2CCN(C)CC2)c2ccccc21	-4.0	-1.35
Cc1c(N)cccc1-n1c(C)ccc1C	-1.8	-0.467
O=C(CCN1C(=O)C2CC=CCC2C1=O)Nc1nnc(C2CC2)s1 (stereo not given)	-1.1	nt
C=CCn1nc2n(c1=O)-c1ccccc1SC2	-1.2	nt
CCCCc1oc2ccccc2c1CNC	-0.7	nt
O=C1CCCc2c1cc(C(=O)Nc1ccccc1)c(=O)n2-c1ccccc1	0.8	nt
O=C1Cc2cc(C(=O)Cn3nc(C(=O)O)c4ccccc4c3=O)ccc2N1	-1.0	nt
O=C(Nc1ccc2c(c1)OCO2)C12CC3CC(CC(O)(C3)C1)C2	0.6	nt
CCNc1nc(NC(N)=S)nc(NC(C)(C)C)n1	-0.8	-0.348
CCC(C)c1ccc(NC(=O)NC(C)(C)C)cc1 (stereo not given)	1.4	-1.41
O=C(c1ccccc1)N1CCCCC1	1.0	0.088
O=C(O)c1cc2ccc(O)cc2oc1=O	0.5	-0.0585
CCc1ccc(C(c2c(C)[nH][nH]c2=O)C(C#N)C#N)cc1 (stereo not given)	1.3	0.261
Clc1ccc(-c2nnc3n2CCCC3)cc1Cl	nt	2.38
CN(Cc1ccc(Cl)s1)C(=O)CSc1nnc2n1CCCCC2	-0.4	nt
CC1CCCCC1Nc1ncnc2c1oc1ccccc12 (stereo not given)	-0.1	nt
O=C1/C(=C/c2ccc3c(c2)OCO3)COc2ccccc21	0.3	nt
O=C(c1ccc(F)cc1)N1C=CC(C(F)(F)F)=NCC1	nt	-0.277
CCn1c(SCC(=O)Nc2ccc3c(c2)OCO3)nc2ccc(Br)cc2c1=O	-0.6	nt
CC(C)OC(=O)CSc1nnc(-c2cnccn2)n1-c1ccccc1	14.2	0.726
Cc1nc2c(c(-c3ccccc3)c1C#N)C(=O)c1ccccc1-2	2.1	nt
N#Cc1c(Nc2ccccc2)c(/C=N/N)c[nH]c1=O	-1.9	0.984
Cc1ccc2oc(=O)c3cnn(CC(=O)Nc4ccccc4N4CCN(C)CC4)c3c2c1	-3.6	-0.273
O=C(O)c1cc(NC(=O)C2CC2)cc(NC(=O)C2CC2)c1	-3.7	1.66
Fc1ccc(C(c2nnnn2C2CCCC2)N2CCc3ccccc32)cc1 (stereo not given)	-0.9	0.663
Nc1n[nH]c(Cc2ccccc2)c1-c1ccccc1	2.0	-0.172

Individual results from the list:
Ab BasE inh result of OCCN(c1ccccc1)c1ncnc2onc(-c3ccc(F)cc3)c12 : 0.4
KSHV LANA nucl result of O=C(c1ccc(F)cc1)N1C=CC(C(F)(F)F)=NCC1 : -0.277
Ab BasE inh result of O=C1CCCc2c1cc(C(=O)Nc1ccccc1)c(=O)n2-c1ccccc1 : 0.8
Ab BasE inh result of CCn1c(SCC(=O)Nc2ccc3c(c2)OCO3)nc2ccc(Br)cc2c1=O : -0.6

Next results:
SMILES	Ab BasE inh	KSHV LANA nucl
C=CCc1ccccc1OCC(CN1CCCCC1)OC(C)=O (stereo not given)	-0.5	-0.449
NN/C(=N/S(=O)(=O)c1ccccc1)N1CCCC1	1.5	nt
O=C1NC(=O)N(c2ccccc2)C(=O)/C1=C\c1ccc(C(=O)O)cc1	3.2	nt
O=C(c1ccccc1)N(Cc1nc(-c2ccccc2)no1)C1CCCCC1	1.6	-1.82
COc1ccc(N2CCN(CCNC(=O)c3cc(-c4ccccn4)nc4ccccc34)CC2)cc1	0.5	-0.329
Cc1ccc(S(=O)(=O)N(c2ccccc2)C2CC(C)Nc3ccccc32)cc1 (stereo not given)	-1.1	nt
O=C(COC(=O)c1ccc(N2C(=O)c3ccccc3C2=O)cc1)Nc1ccc(N2CCOCC2)cc1	0.8	nt
COc1ccc(CCC(=O)Nc2ccc(-c3noc(-c4ccccc4Br)n3)cc2)cc1	-0.3	-0.381
CSc1nnc(-c2ccccc2O)n1-c1ccccc1	3.3	-0.0095
Cc1ccc(C(=O)OC[C@H]2O[C@H](c3nnc4ncccn34)C[C@@H]2OC(=O)c2ccc(C)cc2)cc1	-2.1	nt
O=C(Nc1ccc(-c2nc3ccc(NC(=O)C4CC4)cc3[nH]2)cc1)C1CC1	nt	-0.817
NC(=O)COc1ccc(-c2noc(COc3cccc(Cl)c3)n2)cc1	-0.8	-0.567
O=C(c1ccco1)c1cc2cc(Br)ccc2oc1=O	3.5	-0.0225
O=C(NCc1csc(-c2cccs2)n1)c1cc(F)cc2c1OCOC2	-1.2	nt
Cc1cc(OCC(=O)Oc2c(C)cc(Br)cc2Cl)no1	-1.4	nt
CCc1cc(SC(C)C(=O)c2c(N)n(C)c(=O)n(C)c2=O)n2c(nc3ccccc32)c1C#N (stereo not given)	11.4	nt
COCc1nnc(NC(=O)/C=C/c2ccc(OC)cc2)s1	1.3	-0.755
C1CCN2CC3CC(CN4CCCC[C@@H]34)C2C1 (stereo not given in full)	-0.8	0.4
CCN(CC)C(=O)c1cc2c(n(-c3ccc(OC)cc3)c1=O)CC(C)(C)CC2=O	0.2	0.525
CCN(CC)S(=O)(=O)c1ccc(C(=O)NCCn2c(C)cc3ccccc32)cc1	-2.8	-0.488
Cc1cc(NNC(=S)S)nc(N)n1	-3.7	1.59
CN(C)/C=N/NS(=O)(=O)c1ccccc1	-1.7	0.779
CN1C=C(C(N)=O)C=C/C1=C(/C#N)c1nc2ccccc2s1	4.3	-1.34
C=CCN1C(=O)/C(=C\c2ccccc2Cl)N=C1c1ccccc1	0.4	nt
COC(=O)C(CC(C)C)NC(=O)c1ccccc1Cl (stereo not given)	-0.4	nt
COc1cccc(/C=C2/SC(=Nc3ccccc3)N(CCc3ccccc3)C2=O)c1O	-0.1	nt
O=C(Cc1c[nH]c2ccccc12)N1CCN(c2ccccc2)CC1	-3.3	nt
COc1nc(-c2ccccc2Cl)c2cc(Br)ccc2n1	0.3	nt
COC(=O)c1scc(C)c1NN1C(=O)c2ccccc2C1=O	0.4	-0.019
Cc1ccc(C)c(NC(=O)NCCCN2CCc3ccccc3C2)c1	1.2	0.205
CC(=O)Oc1ccc(C(=O)N(Cc2nc(-c3cccc(C)c3)no2)C(C)C)cc1	0.5	1.12
CCN(CCO)c1nc(NC2CCCCC2)c2cnn(C)c2n1	0.6	0.555
CC(Sc1nc2ccccc2c(=O)n1Cc1ccco1)C(=O)c1ccc(F)c(F)c1 (stereo not given)	-1.8	nt
CCCCNC(=O)c1ccccc1NC(=O)CC	1.1	0.526
COC(=O)c1ccc(OCC(=O)NCC(F)(F)F)cc1	-1.2	nt
O=c1ncn(-c2ncc(C(F)(F)F)cc2Cl)[nH]1	nt	-1.12
CC[n+]1c(C)oc2ccc(OC)cc21	0.4	-0.525
NS(=O)(=O)c1ccc(CCNC2CC(=O)N(Cc3cccs3)C2=O)cc1 (stereo not given)	-2.9	1.49
Cc1[nH]c(=S)n(CC2CCCO2)c1C (stereo not given)	-3.2	nt
CCOc1ccc(OCC(=O)NCCc2nc3ccccc3[nH]2)cc1	-2.1	0.202
CCN(CC)C1=C(C(=O)c2ccccc2)NS(=O)(=O)c2ccccc21	0.1	-0.262
COc1ccccc1C(=O)n1nc(C)cc1C	2.8	nt
COC(=O)C1=C(C)NC2=C(C(=O)CC(c3ccccc3)C2)C1c1ccccc1OC(C)C (stereo not given)	0.2	nt
O=C(Oc1c(CN2CCOCC2)cc(Cl)c2cccnc12)c1ccccc1	-3.4	nt
COc1cccc(=O)c2c(C)oc(C)c12	12.3	-4.36*
C=C(C)CC1N(CCc2ccccc2)C(=O)C2C(C(=O)O)C3C=CC21O3 (stereo not given)	-2.0	-1.32
CCOC(=O)c1cc2cccc(Cl)c2[nH]1	2.0	-0.047
CC(NC(=O)Cn1c(=O)oc2cc(S(=O)(=O)N(C)C)ccc21)c1ccccc1 (stereo not given)	-1.9	nt

Entries above with fluorine:
SMILES	Ab BasE inh	KSHV LANA nucl
OCCN(c1ccccc1)c1ncnc2onc(-c3ccc(F)cc3)c12	0.4	nt
COc1ccc(OCC(O)CNC(=O)Nc2cc(F)ccc2C)cc1 (stereo not given)	10.6	0.473
O=C(Nc1cccn2ncnc12)c1cccc(C(F)(F)F)c1	nt	-0.284
FC(F)(F)c1cccc(Cc2c[nH]c(=S)s2)c1	2.8	nt
O=C(c1ccc(F)cc1)N1C=CC(C(F)(F)F)=NCC1	nt	-0.277
Fc1ccc(C(c2nnnn2C2CCCC2)N2CCc3ccccc32)cc1 (stereo not given)	-0.9	0.663
O=C(NCc1csc(-c2cccs2)n1)c1cc(F)cc2c1OCOC2	-1.2	nt
CC(Sc1nc2ccccc2c(=O)n1Cc1ccco1)C(=O)c1ccc(F)c(F)c1 (stereo not given)	-1.8	nt
COC(=O)c1ccc(OCC(=O)NCC(F)(F)F)cc1	-1.2	nt
O=c1ncn(-c2ncc(C(F)(F)F)cc2Cl)[nH]1	nt	-1.12

Next section.
SMILES	Ab BasE inh	KSHV LANA nucl
COc1ccccc1-c1c(C)nn2c(NCCN3CCN(Cc4ccccc4)CC3)cc(C)nc12	3.5	-0.278
CC(C)c1cc(C(C)C)c(S(=O)(=O)N2CCCC2)c(C(C)C)c1	2.0	nt
O=C1C(=Cc2cn[nH]c2-c2ccccc2)C(=O)c2ccccc21	4.6	-1.28
Fc1ccccc1C=Nc1cccc2ccccc12	-0.1	nt
COc1cc(CC(=O)OCC(N)=O)cc(OC)c1OC	1.7	nt
CC(=O)Nc1ccc(OC(F)(F)C(F)F)c(NC(C)=O)c1	2.6	nt
Cc1ccc(S(=O)(=O)N2CCC(C(=O)OCC(=O)c3cc(C)n(C4CC4)c3C)CC2)cc1C	-0.9	nt
Cc1cc(/C=C(/C#N)c2ccc(C(=O)O)cc2)c(C)n1-c1ccc(S(N)(=O)=O)cc1	2.6	0.119
O=C(CN1CSCC1=O)Nc1cccc(C(=O)NC2CC2)c1	-4.3	nt
CCOC(=O)c1cnc(SCC(=O)OCC(=O)NC2(C#N)CCCC2)nc1N	-0.7	nt
Nn1c(COc2cccc(Br)c2)nnc1SCC(=O)N1CCOCC1	0.7	nt
CCCN(Cc1c(F)cccc1F)CC1CC1	-0.7	-2.05
COc1cccc(NC(=O)COc2ncnc3ccccc23)c1	-2.8	nt
Cc1ccc2nc(SCC(N)=O)oc2c1	-4.5	2.59
CCOc1ccccc1N1CCN(C(=O)[C@H](C)NC(N)=O)CC1	-0.1	nt
COCC(C)NC(=S)N1CCN(c2ccccc2Cl)CC1 (stereo not given)	0.3	nt
O=S(=O)(NCc1cccs1)c1ccc(-c2cc(C(F)(F)F)no2)s1	0.0	nt
O=C1OCC2=C1C(c1ccc3c(c1)OCO3)CC(=O)N2c1ccccc1 (stereo not given)	0.9	-0.133
CCc1ccc(C2CC(c3ccccc3)=NN2C(=O)CCCC(=O)O)cc1 (stereo not given)	-1.9	nt
COc1cccc(CN(C)S(=O)(=O)c2ccc(C)cc2)c1	-0.2	nt
NNc1nc(N2CCOCC2)nc(N2CCOCC2)n1	2.1	0.368
C=CCNC(=O)c1cccc(OC)c1	-0.5	0.406
O=c1ccc2cc(N=Cc3cc(Cl)cc(Cl)c3O)ccc2o1	-0.5	nt
CCOc1ccc(N=Nc2c(C)n[nH]c2C)cc1	-1.0	nt
CCn1nc(C(=O)Nc2ccc(S(=O)(=O)Nc3ncccn3)cc2)c2ccccc2c1=O	1.2	nt
c1ccc(-n2nnnc2Sc2ncnc3ccccc23)cc1	3.4	nt
COc1ccc(CCNC(=O)CSc2ccc(-c3ccco3)nn2)cc1	0.3	-0.193
COc1ccc(C(=O)NC(=S)Nc2ccc3[nH]c(=O)[nH]c3c2)cc1OC	2.3	nt
Cc1cc(C)nc(/N=C(\N)N2CCc3ccccc32)n1	0.7	0.492
COC(=O)c1cc(-c2ccco2)nc2c1c(=O)n(C)c(=O)n2CC(C)C	0.0	nt
COC(=O)c1sc(NC(=O)c2ccco2)c(C#N)c1C	0.1	-0.274

Source: PubChem BioAssay

Only part of the results is shown. The share of hits here may be higher or lower than overall.
